CBX7 inh: CBX7 inhibition, primary AlphaScreen; O95931; AlphaScreen His6-CBX7 / biotin-H3K27me3 peptide binding; stronger effect = lower value; normalised signal (fraction of DMSO) (concentration not given with the values); 66,000 tested, 1.1% active; AID 1224903; in the data active = normalised signal below about 0.5;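 also: 100 nL library stock added to about 20 µL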
Target sequence (O95931 whole entry, looked up): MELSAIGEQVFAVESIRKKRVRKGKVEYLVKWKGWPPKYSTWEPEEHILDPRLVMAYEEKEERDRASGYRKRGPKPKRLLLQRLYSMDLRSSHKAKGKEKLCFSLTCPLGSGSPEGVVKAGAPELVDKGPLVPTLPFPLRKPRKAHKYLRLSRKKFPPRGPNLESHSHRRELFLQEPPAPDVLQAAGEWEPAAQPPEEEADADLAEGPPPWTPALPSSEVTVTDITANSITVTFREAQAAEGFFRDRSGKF
CBX7 inh z-score: recorded beside CBX7 inh, whose call it bears; z-score; measured here: z-score of CBX7 signal; some inactives read as strong as hits; reference of the scale not given here;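 same signal on another scale; lower means less binding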
* = called active by the depositor; & = joins results of further samples. Some of the compounds tested; rates above refer to the full screens.

SMILES | CBX7 inh | CBX7 inh z-score
O=C(NCc1ccccc1)c1cnc2ccccn2c1=O | 1.1 | 0.83
Cc1ccc(Cl)cc1N1CCN(C(=O)Cn2ncc3c2-c2ccccc2OC3)CC1 | 0.73 | -7.8
CCc1ccccc1NC1c2ccccc2C(=O)N1c1ccc(Cl)cc1 (configuration not stated) | 0.95 | -1.3
CC(=O)Nc1ccc(NC(=O)Nc2cccs2)cc1 | 1 | 0.19
C=CCc1ccccc1OCC(O)Cn1c(C)nc2ccccc21 (configuration not stated) | 0.93 | -1
c1ccc(CC2CCN(c3nnc(Cc4cccnc4)c4ccccc34)CC2)cc1 | 0.91 | -1.8
CCOC(=O)c1cnc2c(C)cc(C)cc2c1Nc1ccc(Br)cc1 | 1 | 0.24
CCOCCCNC(=O)C1CCCN(C(=O)c2cc3sccc3n2CC)C1 (configuration not stated) | 1 | 0.3
COc1ccc(NC(=O)c2cccc(OCc3cccc(Cl)c3)c2)cc1 | 1.1 | 1.1
Cc1cc(NC(=O)c2ccc3c(c2)NC(=O)c2ccccc2S3)no1 | 1 | 0.43
Cc1ccc(NC(=O)CCc2c(C)nc3c(-c4ccc(F)cc4)c(C)nn3c2C)cc1F | 0.96 | -1.2
COc1cc2c(cc1OC)C(c1cccc(F)c1)CC(=O)N2 (configuration not stated) | 1.2 | 1.6
Cc1ccccc1Cc1c(C)nc2c(C(=O)NCC3CCCO3)cnn2c1C (configuration not stated) | 0.97 | -0.86
O=C(CC1Sc2ccc(C(F)(F)F)cc2NC1=O)Nc1ccc(N2CCCCC2)cc1 (configuration not stated) | 0.97 | -0.78
N=c1n(CCOc2ccccc2)c2ccccc2n1Cc1ccccc1 | 0.98 | -0.53
Cc1cc(=O)n2nc(N3CCCC(C(=O)NCCCN4CCc5ccccc5C4)C3)sc2n1 (configuration not stated) | 1.5 | 3.6
O=C1c2ccccc2C(Nc2ccccc2Cl)N1c1ccccn1 (configuration not stated) | 1.1 | 2.3
CC(=O)N1CCc2cc(S(=O)(=O)NC(C(=O)N3CCc4ccccc4C3)C(C)C)ccc21 (configuration not stated) | 1 | 0.87
Cc1ccc(-c2nc(C(=O)NCc3ccccc3)c(C)o2)cc1 | 1.1 | 1.5
Cc1ccc(-c2nc(Nc3ccc(F)cc3Cl)c3ccccc3n2)cc1 | 0.93 | -1.3
COC(=O)c1oc2ccccc2c1NC(=O)c1ccccc1 | 1.1 | 0.085
COc1cccc(C2CC(=O)NC3=C2C(=O)CCC3)c1OC (configuration not stated) | 0.93 | -0.84
Cn1nc(C(=O)NC2CCCCC2)c2ccccc2c1=O | 1.1 | 2.7
Cc1ccc(C(=O)Nc2c3c(nn2-c2cccc(Cl)c2)CSC3)cc1C | 1.1 | 1.3
O=C(Nc1cc(-c2nc3ncccc3o2)ccc1Cl)c1ccc(OCc2ccccc2)cc1 | 1.1 | 1.5

Additional compounds.
SMILES | CBX7 inh | CBX7 inh z-score
OC(CC#CCN1CCCCC1)(c1ccccc1)c1ccccc1 | 1 | 0.41
CCOc1ccccc1NS(=O)(=O)c1cnc[nH]1 | 1.1 | 0.77
CC1CCCC(C)N1CCCNC(=O)c1cc2sccc2n1Cc1ccc(Cl)cc1 (configuration not stated) | 0.94 | -1.5
Cc1cccc(N2CCN(CCNC(=O)c3csc4c3CCCC4)CC2)c1C | 1 | 0.65
CCCOc1ccc(Cn2c(COc3ccccc3)nc3ccccc32)cc1 | 1 | -0.039
CCC1Oc2ccc(Cl)cc2N(C(C)C(=O)NCC2CCCO2)C1=O (configuration not stated) | 1 | 0.64
CCOc1ccc(-n2c(C)nc3cc(C(=O)NCc4ccc5c(c4)OCO5)ccc32)cc1 | 0.91 | -2.2
Cc1nc(Nc2nc(-c3ccccc3)c3cc(Cl)ccc3n2)[nH]c(=O)c1Cc1ccccc1 | 1 | 0.63
CCC(=O)Nc1nonc1-c1nc2ccccc2n1Cc1ccc(Br)cc1 | 0.98 | -0.33
CC1CCN(CC(O)COc2ccc(C3CCCCC3)cc2)CC1 (configuration not stated) | 1 | 0.21
Cc1ccc(Cn2c(C(=O)NCc3ccccc3)cc3oc(C)cc32)cc1 | 0.64 | -3.9
COc1ccc(Cl)cc1NC(=O)c1csc2c1CCCC2 | 1.3 | 11
COc1ccc(OC)c(CNC(=O)c2cc(-c3ccc(Cl)s3)nc3ccccc23)c1 | 1 | 1.6
Cc1ccc(-n2c3c(cc(C(=O)Nc4ccccc4Br)c2=O)C(=O)CC(C)(C)C3)cc1 | 1.1 | 1.6
CCOCCCNC(=O)c1ccc2c(c1)N(Cc1ccc(F)cc1)C(=O)c1ccccc1S2(=O)=O | 1.2 | 3
COc1ccc(-c2cc3nc(C)c(CCC(=O)NCc4ccc(F)cc4)c(C)n3n2)c(OC)c1 | 1 | -0.055
COc1ccc2[nH]cc(CCNC(=O)c3cc(Cl)c(N)c(Cl)c3)c2c1 | 0.65 | -9.3
CNC(=O)COc1ccc(NC(=O)CCn2nc(-c3ccc(Cl)cc3)c3ccccc3c2=O)cc1 | 0.99 | -0.29
O=C(CCc1nc(-c2cccs2)no1)Nc1ccc(Cl)cn1 | 1 | 0.26
O=C(CSc1nnc(CNC(=O)c2ccccc2F)o1)Nc1cccc2ccccc12 | 0.99 | -0.2
CC1CCC(NC(=O)C2c3cccn3CC(=O)N2c2ccc(Cl)cc2)CC1 (configuration not stated) | 0.99 | -0.2
O=C(Cn1nc(-c2ccc(Cl)cc2)ccc1=O)N1CCN(c2ccccc2)CC1 | 0.89 | -4.8
Cc1ccc(N2C(=O)CC(Sc3ccc(F)cc3)C2=O)cc1 (configuration not stated) | 1 | 0.00016
O=C(CC1C(=O)N(c2ccccc2)C(=O)N1Cc1cccs1)Nc1ccc(Cl)cc1 (configuration not stated) | 1 | 0.58
CNC(=O)c1cc2c(n(-c3ccccc3)c1=O)CCCC2=O | 0.96 | -1.1

Going on with the list:
SMILES | CBX7 inh | CBX7 inh z-score
COc1ccc2nc(NC(=O)CSc3nc4ccccc4[nH]3)sc2c1 | 0.99 | -0.086
CCN(CCNC(=O)CS(=O)(=O)Cc1nc(-c2ccc(C)cc2)oc1C)c1ccccc1 | 0.92 | -0.076
O=C1CSc2ccc(C(=O)NC3CCCCCC3)cc2N1 | 1.2 | 1.5
CCOc1ccccc1C(=O)Nc1ccc(S(=O)(=O)Nc2ncccn2)cc1 | 0.97 | -0.63
COc1ccccc1N1CCN(C(=O)NC2(c3ccccc3)CC2)CC1 | 0.98 | -0.32
O=C(CSc1ccc2nnc(-c3ccccc3)n2n1)Nc1ccc(F)cc1F | 1 | 0.3
Cc1cc(N2CCCCCC2)n2nc(C)c(-c3ccc(Cl)cc3)c2n1 | 1.5 | 6.3
COc1ccc(C(=O)CC2(O)C(=O)N(Cc3ccc(Cl)cc3)c3ccccc32)cc1 (configuration not stated) | 0.77 | -0.4
CCn1c(C(=O)N2CCC(C(=O)NC(C)c3ccccc3)CC2)cc2sccc21 (configuration not stated) | 0.89 | -0.49
Cc1cc(NC(=O)CN2CCCCCC2)c2ccccc2n1 | 0.96 | -1.4
Cc1cc2nc(-c3ccc(F)cc3)cc(C(F)(F)F)n2n1 | 1.1 | 4.1
O=C(CN1C(=O)COc2ccc(S(=O)(=O)N3CCOCC3)cc21)Nc1ccc(Cl)cc1 | 0.99 | -0.26
O=C(NCc1ccc2c(c1)OCO2)C1CCN(S(=O)(=O)c2cnc[nH]2)CC1 | 0.88 | -1.6
Cc1ccc(-n2ncc3c(NCCc4ccc(S(N)(=O)=O)cc4)ncnc32)c(C)c1 | 0.96 | -1.1
COc1ccccc1-c1nnc(NC(=O)c2ccccc2Cl)s1 | 1 | 0.76
O=C(Cn1c(-c2ccccn2)nc2ccccc21)NCCCn1ccnc1 | 0.91 | -2.6
CCOc1ccccc1Nc1nc2ccccc2nc1NS(=O)(=O)c1ccc(Br)cc1 | 0.84 | -4.7
COC(=O)c1oc2ccc(Cl)cc2c1NC(C)=O | 1.1 | 1.9
COc1ccc(C2=NOC(C(=O)Nc3cccc(C(F)(F)F)c3)C2)cc1 (configuration not stated) | 1.1 | 2.5
CCCNC(=O)C1CCCN(c2nc3ccc(OCC)cc3s2)C1 (configuration not stated) | 0.96 | -1.1
CCc1ccccc1NC(=O)C1CC1(c1ccc(C)cc1)c1ccc(C)cc1 (configuration not stated) | 0.98 | -0.32
Cc1nc2cc(-c3ccc(Cl)cc3)nn2c(C)c1CCC(=O)Nc1cccc(F)c1 | 1 | 0.24
Nc1ccc(O)c(-c2nc3ccccc3o2)c1 | 0.63 | -6.4
COc1cccc(-c2nc(CS(=O)(=O)CC(=O)N3CCOCC3)c(C)o2)c1 | 0.99 | -0.34
COc1ccc(-c2c(C)nn3c(N4CCN(c5cccc(Cl)c5)CC4)cc(C)nc23)cc1OC | 0.99 | -0.073

(more compounds)
SMILES | CBX7 inh | CBX7 inh z-score
CC(O)Cc1nsc(NC(=O)c2cccc(F)c2)n1 (configuration not stated) | 1 | 0.17
CCOC(=O)C1CCCN(c2c(NCCN3CCCCC3C)c(=O)c2=O)C1 (configuration not stated) | 1 | 1.1
COc1ccccc1OCCNC(=O)c1cccs1 | 0.93 | -0.81
O=C(NCCCN1CCOCC1)c1cnn(-c2ccccc2)c1-n1cccc1 | 1 | 0.76
Cc1onc(-c2ccccc2Cl)c1C(=O)Nc1ccccc1Sc1ccccc1 | 1.1 | 2.9
O=C(NC(c1ccccc1)c1ccccc1)C1CCCN1S(=O)(=O)c1cccc2cccnc12 (configuration not stated) | 0.93 | -2.2
CCc1ccccc1NC(=O)c1cc(-c2ccc(F)cc2)on1 | 1.1 | 0.14
O=C(Nc1nnc(Cc2ccc(F)cc2)s1)c1cccs1 | 0.99 | -0.29
O=C(Nc1cccc(F)c1)C(Cc1ccccc1)NS(=O)(=O)c1ccc(Br)s1 (configuration not stated) | 0.79 | -0.86
CC1CCN(c2nc3ccc(C(=O)Nc4cccc(F)c4)cc3s2)CC1 | 1.1 | 3.1
CCCCC(C(=O)Nc1ccc(OC)cc1)N1C(=O)c2ccccc2C1=O (configuration not stated) | 1 | 0.14
CCOC(=O)c1cnc2ccc(OCC)cc2c1Nc1ccc(F)cc1F | 0.63 | -0.42
O=C(O)c1cccc(NS(=O)(=O)c2cc(Cl)ccc2Cl)c1 | 0.97 | -0.75
Cc1oc(-c2cccc(Cl)c2)nc1CS(=O)(=O)CC(=O)NCCCc1ccccc1 | 1 | 1.1
COc1ccc(N2C(=O)CC(N3CCC(Cc4ccccc4)CC3)C2=O)cc1 (configuration not stated) | 1 | -0.018
Cc1ccc(-n2nc(C)c3c(C)c(CCC(=O)NCCC4=CCCCC4)c(C)nc32)cc1 | 1.1 | 0.78
CCOC(=O)c1ccc(NC(=O)c2cc3c(n(-c4ccc(Cl)cc4)c2=O)CCCC3=O)cc1 | 1 | 0.2
CCCc1nc2ccccc2n1C(=O)c1ccccc1C(=O)O | 1 | -0.0052
CC1(C)CC(=O)c2cc(OCC(=O)N3CCCCCC3)ccc2O1 | 1.2 | 1.6
COC(=O)c1ccc2nc(-c3ccc(OC)cc3)c(-c3ccc(OC)cc3)nc2c1 | 1.7 | 4.8
Cc1ccc(Cc2c(C)nc3c(C(=O)NC4CCCC4)cnn3c2C)cc1 | 0.99 | -0.38
CCCNC(=O)c1sc2nc(-c3ccc(OC)cc3)cn2c1C | 1 | 0.79
COc1ccc2nc(NC(=O)c3cccc(OCc4ccccc4)c3)sc2c1 | 0.97 | -1.2
CCCN(CCC)S(=O)(=O)c1ccc2c(c1)CCN2C(=O)C1CCC1 | 1.1 | 2.1
CCn1c(SCC(=O)Nc2ccccc2OC)nnc1-c1c[nH]c2ccccc12 | 1.2 | 1.3

The list goes on.
SMILES | CBX7 inh | CBX7 inh z-score
COCc1nc2ccccc2n1CCOc1ccc2ccccc2c1 | 0.97 | -0.97
Cc1ccc(CNC(=O)c2cc(=O)n(Cc3cccc(C)c3)c3ccccc23)cc1 | 1 | 0.14
O=C(Nc1nc(-c2ccc3ccccc3c2)cs1)c1ccc(Br)cc1 | 1.1 | 0.89
CC(C)N(CCCNC(=O)c1csc2c1CCCC2)Cc1ccccc1 | 1 | 0.94
O=C(NCc1cccc(Cl)c1)c1cc2c(s1)-c1ccccc1OC2 | 1.3 | 8.2
COc1ccc(Nc2cc(C(=O)NCCN3CCCC3)c3ccccc3n2)c(OC)c1 | 0.63 | -5.7
Cc1nnc(SCC(=O)Nc2ccc(O)cc2)c2ccccc12 | 1.1&1 | 1.5&0.21

Screens as filed in PubChem BioAssay.
